# Screening data (PubChem BioAssay)
# INS promoter inh = TRM-6 insulin promoter activity inhibition. TRM-6 cells (human fetal islet line), insulin promoter-eGFP reporter, imaging; reporter expression induced with tamoxifen. inhibition, % at 2 µM. 130,000 tested, 0.9% active. AID 1273;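 active means inhibition above the mean plus 3 SD, with well images judged a real hit on visual review, cut at about 60% in these data, passing the limit was not always enough; inconclusive means inhibition over the cutoff but images rejected on review; inactive means inhibition not above the cutoff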
# PKD1 kinase inh = inhibitors of human PKD1 kinase. PKD1 kinase fluorescence polarization assay. inhibition, %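 (about 10 µM by stock and volumes)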. 200,000 tested, 0.056% active. Q15139;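 active means inhibition of 50% or more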;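 further: controls were vehicle for no effect and a reference inhibitor for full effect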
# Target sequence (Q15139 whole entry, looked up): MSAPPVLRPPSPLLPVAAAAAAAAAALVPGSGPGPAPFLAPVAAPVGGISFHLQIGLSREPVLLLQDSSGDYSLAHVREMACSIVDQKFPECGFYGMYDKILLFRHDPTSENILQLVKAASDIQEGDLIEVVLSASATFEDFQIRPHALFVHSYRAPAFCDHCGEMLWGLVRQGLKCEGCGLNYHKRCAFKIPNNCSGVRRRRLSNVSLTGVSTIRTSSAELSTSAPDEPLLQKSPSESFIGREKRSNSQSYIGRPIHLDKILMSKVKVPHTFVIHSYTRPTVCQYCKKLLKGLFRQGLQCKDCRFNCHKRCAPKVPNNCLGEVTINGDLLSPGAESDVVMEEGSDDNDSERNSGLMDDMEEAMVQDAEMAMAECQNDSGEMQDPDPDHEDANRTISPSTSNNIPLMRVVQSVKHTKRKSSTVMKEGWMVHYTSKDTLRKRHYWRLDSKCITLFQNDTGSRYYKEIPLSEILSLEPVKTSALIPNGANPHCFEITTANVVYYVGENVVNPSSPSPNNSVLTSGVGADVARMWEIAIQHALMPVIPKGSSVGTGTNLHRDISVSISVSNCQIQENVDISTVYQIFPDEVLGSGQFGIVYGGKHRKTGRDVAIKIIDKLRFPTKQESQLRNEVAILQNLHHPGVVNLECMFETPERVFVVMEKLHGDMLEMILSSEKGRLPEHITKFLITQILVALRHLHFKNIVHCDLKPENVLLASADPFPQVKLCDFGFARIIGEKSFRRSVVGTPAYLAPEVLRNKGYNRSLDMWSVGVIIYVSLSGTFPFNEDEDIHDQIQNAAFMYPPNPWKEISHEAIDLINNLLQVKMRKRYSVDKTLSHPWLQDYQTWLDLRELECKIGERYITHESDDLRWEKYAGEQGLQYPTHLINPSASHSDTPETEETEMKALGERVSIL
# GALR2 ag = GALR2 (human) receptor agonism; O43603; GALR2-expressing cells, agonist activation read-out; activation, %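 (tested at 5 µM)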; 140,000 tested, 0.48% active; AID 803;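 active means above mean plus 3 SD of all compounds, about 5% in these data, not always enough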;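 further: 0% = vehicle buffer wells and 100% = reference agonist at full effect; tested in CHO reporter cells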
# HSV replic up = HSV replication enhancement; HSV replication augmentation in cells, fold increase; maximum fold increase; 220,000 tested, 0.005% active; AID 1956;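 active means peak rise of 1.5-fold or more in the series; inconclusive means self-fluorescent or not available for retest; tested in PC3 cells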;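 further: first round at 10 µM; read as green reporter fluorescence; hits show the peak of a series up to 25 µM; 1 = signal of infected wells without compound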
# RGS16-Gao = modulates binding between human RGS16 and Galphao | O15492+P09471 | bead-based flow cytometry RGS16-Galphao binding, fluorescence; actives lie on both sides | binding response (% of control), % at 10 µM | 220,000 tested, 0.38% active;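 active means below 25% or above 175%, edge rows of some plates excepted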;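 further: Galphao activated by GDP with aluminum fluoride before binding; 100% = wells without compound and 0% = beads without RGS; some results beyond the cut were filed as inactive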
# INS promoter inh cell count = further read-out of INS promoter inh, marked with its call; normalized cell count, %; measured here: cell count, toxicity; reference of the scale not given here;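 cells exposed to compound for 48 h; stained nuclei by imaging scaled within each plate; lower means fewer cells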
# HSV replic up primary fold = second read-out of HSV replic up, no call of its own (marks repeat the call); fold increase; compound at 10 µM; measured here: primary screen fold increase 10 uM; tested in PC3 cells;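 GFP signal in the first replicate; 1 = infected wells without compound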
# The depositor's hits bear a star; i = inactive; ? = inconclusive; · = no result given; & = joins results of further samples; [ ] = remark or other dose. Hits appear at their usual frequency. Share with any hit: about 1.2%.
SMILES,INS promoter inh,INS promoter inh cell count,PKD1 kinase inh,GALR2 ag,HSV replic up,HSV replic up primary fold,RGS16-Gao
COc1ccccc1N1CCN(C(=O)c2cc(-c3ccc(C)cc3)on2)CC1,28,107,-2,-2.8,i,1.2,108
Cc1ccc(O)c(NC(=O)CN(C)S(=O)(=O)c2ccc(Cl)cc2)c1,·,·,·,·,i,0.93,108
CSc1nnc(-c2nnc(SC)n2-c2ccccc2)n1-c1ccccc1,29,84,-8,-0.6,i,1,89
Cc1ccc(C)c(S(=O)(=O)NCCCn2ccnc2)c1,·,·,-3,-1.4,i,0.95,95
CC(=O)c1cccc(NC(=O)Nc2cnn(Cc3ccc(Cl)cc3Cl)c2)c1,-34,179,0,-0.9,i,0.88,101
CN1CCN(C(=O)c2ccc(Oc3ccc([N+](=O)[O-])cc3)cc2)CC1,·,·,-2,·,i,0.97,103
Cc1ccccc1C(=O)OCCN(C)Cc1ccccc1,-76,106,8,·,i,1.2,102
COc1cccc(C2SCC(=O)N2c2ccc(Br)cc2)c1OC (stereo not given),·,·,-6,-0.8,i,0.89,102
Cc1ccc(SCC(=O)Nc2ccc(N3CCOCC3)cc2)cc1,·,·,-8,·,i,0.92,102
O=C(NNC(=O)c1ccccc1Br)c1ccc(Cl)c(Cl)c1,-2,111,-9,-1.6,i,0.9,98
Cc1csc(NC(=O)CSc2nc(C)cs2)n1,50,138,-5,-0.5,i,0.77,102
O=C(Cc1coc(-c2ccc(F)cc2)n1)N1CCOCC1,15,81,12,-1.2,i,1.1,100
O=C1Nc2ccccc2C(O)(C(=O)NCc2ccco2)N1c1ccccc1 (stereo not given),·,·,-14,-0.5,i,0.83,101
Cc1ccc(NC(=O)C(C)N2C(=O)C3C4CC(C(Br)C4Br)C3C2=O)cc1 (stereo not given),·,·,6,-0.4,i,0.78,103
CCOc1cc(/C=C2\SC(=S)N(NC(=O)c3cccnc3)C2=O)ccc1O,-19,106,-1,·,?,·,112
CC(=O)C1C(c2cccc([N+](=O)[O-])c2)C2C(C)=NN=C2CC1(C)O (stereo not given),-3,164,2,-0.2,i,0.94,106
CCC(=O)c1ccc(N2CCN(C(=O)COc3ccccc3F)CC2)c(F)c1,-79,64,-3,·,i,0.98,101
CCCSc1nc(N2CCOCC2)c2c(c1C#N)CCCC2,0,76,0,1.8,i,0.98,100
COc1cccc(N=Nc2c(N)[nH][nH]c2=O)c1,-50,76,8,-0.3,i,0.95,102
COc1ccc(CCNC(=O)Nc2ccc3c(c2)OCO3)cc1OC,·,·,8,·,i,1.1,104
O=C(NC1CCCC1)C1CC1c1ccccc1 (stereo not given),43,83,-19,-0.5,i,1.1,101
COc1ccc(-n2c(-c3ccccc3)c[n+]3c2CCC3)cc1,·,·,·,·,i,0.93,99
CNc1ccc(/C=C(\CCC(=O)O)c2nc3ccccc3s2)cc1[N+](=O)[O-],-38,121,8,-1.2,i,0.85,102
OC(COc1ccc(Cl)cc1)CN1C2=NCCCN2c2ccccc21 (stereo not given),27,102,6,-2.3,i,0.75,99
CCc1ccccc1NC(=O)CSc1nnc([C@@H](N)Cc2ccccc2)o1,·,·,-8,-1.0,·,·,73

# Profiles, quoted from the list. Order of values: INS promoter inh, INS promoter inh cell count, PKD1 kinase inh, GALR2 ag, HSV replic up, HSV replic up primary fold, RGS16-Gao
# O=C(NC1CCCC1)C1CC1c1ccccc1 (stereo not given) across the screens: 43, 83, -19, -0.5, i, 1.1, 101
# COc1ccc(CCNC(=O)Nc2ccc3c(c2)OCO3)cc1OC across the screens: ·, ·, 8, ·, i, 1.1, 104
# Cc1ccc(SCC(=O)Nc2ccc(N3CCOCC3)cc2)cc1 across the screens: ·, ·, -8, ·, i, 0.92, 102
# CCCSc1nc(N2CCOCC2)c2c(c1C#N)CCCC2 across the screens: 0, 76, 0, 1.8, i, 0.98, 100
# Cc1ccccc1C(=O)OCCN(C)Cc1ccccc1 across the screens: -76, 106, 8, ·, i, 1.2, 102

# (more compounds)
SMILES,INS promoter inh,INS promoter inh cell count,PKD1 kinase inh,GALR2 ag,HSV replic up,HSV replic up primary fold,RGS16-Gao
Cc1cccc(NC(=S)NCC(c2ccccc2)N(C)C)c1 (stereo not given),-25,148,0,·,i,0.99,103
CCCCn1c(NS(=O)(=O)c2ccc(C)cc2)c(S(=O)(=O)c2ccccc2)c2nc3ccccc3nc21,·,·,2,-0.7,i,1.3,97
COc1ccc(C(O)C(CN2CCOCC2)c2ccccc2)cc1 (stereo not given),-9,77,-11,-1.6,i,0.99,105
Cc1cccc(CSCCNC(=O)CSCc2ccc([N+](=O)[O-])cc2)c1,-8,73,10,-1.4,i,0.82,97
COC(=O)c1cc(-c2ccc(Cl)cc2)n[nH]1,·,·,-7,·,i,1.1,103
CC1CCC/C(=N/Nc2ccc([N+](=O)[O-])cc2[N+](=O)[O-])C1 (stereo not given),-46,92,-4,-2.2,i,0.99,102
CCCc1nc2cc(CC(=O)OC)ccc2o1,51,16,-8,-1.2,i,0.93,98
COC(=O)c1oc2ccccc2c1NC(=O)/C=C/C(=O)O,·,·,4,·,i,0.97,99
Cc1ccc(-c2nc3cc(C)ccc3o2)cc1,-9,106,-14,-3.6,i,0.97,100
C#CCOCCOCCOCCNc1nc(N2CCN(C(=O)Cn3cc(CC(C)O)nn3)CC2)nc(N2CCN(C(=O)Cn3cc(CC(C)O)nn3)CC2)n1 (stereo not given),14,76,-7,-1.9,i,0.8,101
O=C(COc1ccc(S(=O)(=O)N2CCCCC2)cc1)NCc1ccncc1,18,106,-4,-4.1,i,0.96,104
O=C(NC(=S)N1CCOCC1)C12CC3CCC(CC(C3)C1)C2,·,·,-4,-0.2,i,1.1,99
Cc1cc(-c2cc(C(=O)NC3CCCC3)on2)nc(NC2CCCC2)n1,·,·,·,·,i,0.92,99
COc1ccc(OC)c(C2C(C#N)=C(N)Oc3c2c(C)nn3-c2cccc(Cl)c2)c1 (stereo not given),·,·,4,-1.2,i,1.1,102
Cc1nn(Cc2ccc(Cl)cc2)c(C)c1NC(=O)CSc1n[nH]c(C)c1[N+](=O)[O-],-33,99,5,-0.5,i,1,104
O=C(CN1C(=O)C2(OCCO2)c2ccccc21)c1ccc(Cl)cc1,14,73,6,-0.6,i,0.98,104
Cc1ccccc1C(=O)Nc1c(-c2cccs2)c(=O)c2ccccc2n1C,·,·,·,·,i,0.96,101
O=C(O)c1ccc(N/N=C/c2cc3c(cc2[N+](=O)[O-])OCO3)cc1,·,·,3,·,i,0.88,102
O=C1OCCC1S(=O)(=O)c1ccc2ccccc2c1 (stereo not given),·,·,-10,-1.6,i,0.85,74
O=C(Nc1ccccc1)/C(=C/c1ccc([N+](=O)[O-])cc1)NC(=O)c1ccccc1,0,50,-5,5.5*,i,0.94,113
Cc1ccc(Cl)cc1NC(=S)N(C)N,·,·,·,·,i,1.1,98
O=C(NCC1CCCO1)c1cc(-c2ccccc2)on1 (stereo not given),-204,69,-3,-2.2,i,1,102
Oc1ccc(Br)cc1/C=N/Nc1nc(N2CCCCC2)nc(N2CCOCC2)n1,·,·,-5,·,i,0.92,102
Cc1cc2c(c(=O)n1CCCn1ccnc1)C(c1ccco1)C(C#N)=C(N)O2 (stereo not given),27,79,27,-3.2,i,0.85,105
CCCCCN(C(=O)NC(=O)NC(C)CC)S(C)(=O)=O (stereo not given),·,·,-1,-0.1,i,1.2,106
# (cont.)
SMILES,INS promoter inh,INS promoter inh cell count,PKD1 kinase inh,GALR2 ag,HSV replic up,HSV replic up primary fold,RGS16-Gao
Cc1cc(C)n(-c2ccc(F)cc2CN2CCN(Cc3ccccc3)C(CCO)C2)n1 (stereo not given),·,·,2,·,i,0.92,99
Cc1ccc2c(c1)C1CN(C)CCC1N2C(=O)c1ccc(Cl)c(S(=O)(=O)N2CCOCC2)c1 (stereo not given),·,·,1,·,i,0.91,100
Cc1nn(CCc2n[nH]c(=S)n2-c2cccc(Cl)c2)c(C)c1[N+](=O)[O-],9,204,-2,-2.2,i,1.2,99
Cc1ccc(-c2nc3ccccc3o2)cc1NC(=O)Cc1cccs1,·,·,-2,-1.0,i,1.1,90
Cc1cccc(N(C)S(=O)(=O)c2cccc3nsnc23)c1,·,·,2,-0.5,i,0.87,109
CC(=O)c1c(C)[nH]c(C(=O)OCc2ccc(Br)cc2)c1C,·,·,-8,·,i,0.9,102
COCCN1CN(S(=O)(=O)c2ccccc2)c2nc3ccccc3nc21,53,53,-5,-1.4,i,1.2,104
CC(C)CSc1ncnc2c1oc1nc3c(cc12)COC(C)(C)C3,62,116,-9,-1.7,·,·,102
Cc1ccc(-n2nnnc2-c2cnn(-c3cccc(F)c3)c2C(F)(F)F)cc1,71,148,-11,0.0,i,0.79,113
CCn1c(SCC(N)=O)nc2cc(S(=O)(=O)N3CCOCC3)ccc21,7,134,-5,·,i,1,99
COc1cc(-c2nc(Cc3ccccc3Cl)no2)cc(OC)c1OC,-20,78,-16,-0.5,i,0.93,100
S=c1[nH]ccn1-c1ccccc1Cl,·,·,·,·,i,1.1&0.85,95&98
CCN1CC(CN(C)Cc2cn(-c3ccc(C)cc3)nc2-c2ccc(F)cc2)CC1=O (stereo not given),-73,81,8,·,i,0.95,91
Cc1ccc(S(=O)(=O)N2CCCOC2CNC(=O)C(=O)NCc2ccncc2)cc1 (stereo not given),-17,141,0,-1.3,i,1,105
CN(c1ccccc1)S(=O)(=O)c1cccc(NC(=O)CN2CCCc3ccccc32)c1,·,·,·,·,i,0.78,178*[activator]
COCCSc1ccccc1C(=O)Nc1nnc(COC)s1,-12,120,-4,-2.5,i,0.83,104
Cc1sc(NC(=O)c2ccco2)c(C(=O)c2ccc(Cl)cc2)c1C,-45,107,-7,0.2,i,1,104
Fc1ccccc1OCCCN1CCOCC1,·,·,-12,-0.1,i,0.94,92
C=CCn1c(SCC(=O)NC(=O)NCCC)nnc1C1CCCCC1,11,80,-6,-0.8,i,0.93,98
CCOC(=O)c1c(NC(=O)C2C3C=CC(C3)C2C(=O)O)sc2c1CC(C)(C)OC2 (stereo not given),10,195,-4,·,i,0.97,107
c1ccc(CCCNc2ncccn2)cc1,-400,58,-11,-1.6,i,0.91,98
O=C(NCC1(N2CCOCC2)CCCCC1)c1cccc(S(=O)(=O)N2CCc3ccccc3C2)c1,·,·,-2,·,i,1,106
CC(C)(C)OC(=O)[C@H](Cc1ccccc1)NC(=O)c1[nH]cnc1C(=O)Nc1ccc(Cl)cc1,·,·,·,·,i,0.98,102
O=C(Nc1ccc(F)cc1)C1CC(=O)n2c(nc3ccccc32)N1 (stereo not given),·,·,-8,-2.4,i,0.95,103
Cn1c(SCC(=O)NNC(=O)Nc2ccc(Cl)cc2)nnc1-c1ccccc1,·,·,·,·,i,0.97,90
C=CC(=O)NC(NC(=O)C=C)c1ccc(Br)cc1,21,82,19,3.4,i,0.92,109
COc1ccc(CSc2nnc3[nH]c(=O)cc(N)n23)cc1,·,·,2,·,i,0.95,99

# By substructure, the entries above containing a cyano group
SMILES,INS promoter inh,INS promoter inh cell count,PKD1 kinase inh,GALR2 ag,HSV replic up,HSV replic up primary fold,RGS16-Gao
CCCSc1nc(N2CCOCC2)c2c(c1C#N)CCCC2,0,76,0,1.8,i,0.98,100
COc1ccc(OC)c(C2C(C#N)=C(N)Oc3c2c(C)nn3-c2cccc(Cl)c2)c1 (stereo not given),·,·,4,-1.2,i,1.1,102
Cc1cc2c(c(=O)n1CCCn1ccnc1)C(c1ccco1)C(C#N)=C(N)O2 (stereo not given),27,79,27,-3.2,i,0.85,105

# Exported with two lines to a compound: entries from further up
# Sequence of screens: INS promoter inh, INS promoter inh cell count, PKD1 kinase inh, GALR2 ag, HSV replic up, HSV replic up primary fold, RGS16-Gao
> COc1cc(-c2nc(Cc3ccccc3Cl)no2)cc(OC)c1OC
    -20, 78, -16, -0.5, i, 0.93, 100
> Cc1ccc(-n2nnnc2-c2cnn(-c3cccc(F)c3)c2C(F)(F)F)cc1
    71, 148, -11, 0.0, i, 0.79, 113
> Cc1nn(CCc2n[nH]c(=S)n2-c2cccc(Cl)c2)c(C)c1[N+](=O)[O-]
    9, 204, -2, -2.2, i, 1.2, 99
> CC(C)CSc1ncnc2c1oc1nc3c(cc12)COC(C)(C)C3
    62, 116, -9, -1.7, ·, ·, 102
> S=c1[nH]ccn1-c1ccccc1Cl
    ·, ·, ·, ·, i, 1.1&0.85, 95&98
